# Screening data from PubChem.
# NPYLR7 agonist – mosquito NPYLR7 agonism; HEK293T NPYLR7/Galpha15, GCaMP6s calcium fluorescence; actives 0.15% (n = 270,000); AID 1259423; activation, % at 10 µM; in the data active = activation above about 40%;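 also: 0% = vehicle and 100% = reference agonist at the receptor; some compounds past the cut are filed as inactive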
# NPYLR7 agonist max-min – recorded beside NPYLR7 agonist, whose call it bears; activation, %; measured here: Max-Min RFU normalised activation; some inactives read as strong as hits;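 span of the calcium signal over five minutes; 0% = vehicle and 100% = native peptide agonist; compound fluorescence can raise it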
# * = called active by the depositor; & = joins results of further samples. Only part of the results is shown; rates above refer to the full screens.
no.	smiles	NPYLR7 agonist	NPYLR7 agonist max-min
1	COc1ccc(C2=CCN(C(=O)c3cccnc3SC3CCCC3)CC2)cc1	1.1	2.0
2	COc1ccc(-c2noc(Cn3nnc(-c4ccc(Cl)cc4)n3)n2)cc1OC	4.4	11.6
3	O=C(c1cccnc1Sc1ccc(Cl)cc1)N1CCOCC1	10.4	7.9
4	Cc1cc(S(=O)(=O)NCCC(=O)O)cc(C)c1Cl	4.2	1.0
5	O=C(NCC1CCCO1)c1cccnc1N1CCN(C(=O)COc2cccc(Cl)c2)CC1 (centres undefined)	-4.5	9.0
6	CCCCOCCOCC(=O)N1CCC(n2c(Cc3ccccc3)nc3ccccc32)CC1	-5.6	-11.1
7	C=CCOc1cccc(C=C2N=C(c3ccc4c(c3)OCO4)OC2=O)c1	10.0	14.5
8	CC(C)NC(=O)C1=CN2CCNC(=O)N=C2O1	1.4	0.9
9	CCOC(=O)c1c[nH]c2c(F)cccc2c1=O	-1.4	3.6
10	CC(C)(C)NC(=O)c1cc(-c2ccccc2)nc2cc(C(C)(C)C)nn12	-3.7	-0.6
11	O=S(=O)(NCc1cccnc1OCC(F)(F)F)c1ccccc1F	-0.7	-2.6
12	COc1cccc(CN(Cc2ccc(F)cc2)Cc2nc(C(=O)O)co2)c1	-11.1	-3.9
13	Cc1ccnc(SCc2cc(=O)c(OC(=O)c3ccccc3C)co2)n1	-13.2	-13.1
14	CCOc1ccc2nc(SCC(=O)Nc3cccc(C)c3)sc2c1	-6.2	-12.2
15	CC(=O)NC[C@H]1CN(c2ccc(N3CCOCC3)c(F)c2)C(=O)O1	-5.9	-9.2
16	O=C(NCc1cccc(S(=O)(=O)NCc2cccc(F)c2)c1)C1CCC1	-1.9	-1.2
17	CC1=C(C(=O)OC(C)C)C(c2ccco2)C2=C(CCCC2=O)N1 (centres undefined)	3.0	0.8
18	Cc1ccc2nc(CN(C)Cc3ccccc3C(=O)O)[nH]c2c1	-3.1	0.8
19	O=C(O)c1cccc(NS(=O)(=O)C2=Cc3ccccc3CC2)c1	0.0	-0.5
20	Cc1cc(C)c(S(=O)(=O)NCCCn2nc(-c3cccs3)ccc2=O)cc1C	1.6	-0.7
21	COc1ccc(C(=O)N2CCN(C)CC2)cc1NC(=O)NCC1CCCC1	3.4	3.2
22	CC(C)(C)OC(=O)NC1CCN(C(=O)c2cccnc2Nc2cccc(C(F)(F)F)c2)C1 (centres undefined)	5.9	-3.4
23	Cc1cccc(NC(=O)Nc2ccc(Nc3ccc(-n4ccc(C)n4)nn3)cc2)c1	-2.4	-1.6
24	O=C(NCCCOc1cccc([N+](=O)[O-])c1)/C(=C/c1ccccc1)c1ccccc1	-22.9	-30.8
25	CC(C)c1nccn1CCCNC(=O)c1ccc(-c2cc3ccccc3o2)nc1	2.3	-1.0
26	O=C(c1nn[nH]n1)c1c(O)c2ccccc2n(-c2ccccc2)c1=O	2.0	6.2
27	Cc1ccc(Cl)c(NC(=O)c2cccc(CN3CCCC(O)C3)c2)c1 (centres undefined)	2.4	0.3
28	COC(=O)c1ccc(OC)c(CN2N=NC3C(=O)N(c4ccc(OC)c(Cl)c4)C(=O)C32)c1 (centres undefined)	1.3	-4.7
29	CN1CC2N(c3ccccn3)C3CCC2(CC3)OC1=O (centres undefined)	18.6	27.4
30	Cc1ccn2c3c(nc2c1)CNC(=O)CC3c1ccc(Cn2cccn2)cc1 (centres undefined)	-1.8	7.1
31	CNS(=O)(=O)c1ccc(Cl)cc1Cl	4.0	5.7
32	COc1cc(C)c(S(=O)(=O)NCc2ccc3c(c2)OCO3)cc1C	2.9	5.0
33	Cc1cc(C)cc(Oc2cc(-n3nc(C)cc3C)ncn2)c1	-0.9	-0.7
34	O=c1nc(SCc2c(F)cccc2Cl)nc2ccccn12	2.1	-0.8
35	O=C(O)c1cc(C(=O)O)cc(N2C(=O)C3C4C=CC(C4)C3C2=O)c1 (centres undefined)	-0.8	-9.0
36	COc1ccc(C2=Nc3nnnn3C(c3cccc(OC)c3OC)C2)cc1 (centres undefined)	15.2	8.9
37	CCCn1cc(CNC(=O)c2ccccc2C2CCNC2)cn1 (centres undefined)	6.0	4.0
38	Cn1cnnc1SCc1csc(Cc2ccc3c(c2)OCO3)n1	6.9	7.0
39	COc1cccc(C(=O)N2CCSC23CCN(S(=O)(=O)c2ccc(F)cc2)CC3)c1	19.3	31.5
40	CCOC(=O)C=C(C)Nc1cnn(-c2ccccc2)c1	0.4	-1.2
41	O=C(Cn1c(=O)n(C2=CCCCC2)c2ccccc21)N1CCOCC1	0.0	-0.7
42	CC(C)n1cc(CNC2CC(=O)N(C3Cc4ccccc4C3)C2)cn1 (centres undefined)	15.6	4.8
43	O=C(c1ccc(Cl)c(Cl)c1)C1CCN(C(=O)c2ccnc(NC3CC3)c2)CC1	-4.3	-7.1
44	O=c1cnnc(SCc2cccc(C(F)(F)F)c2)[nH]1	-1.0	-1.9
45	CC(=O)c1sc(=Nc2ccccc2C)n(CCO)c1C	-3.4	-8.8
46	Cc1ccc(-c2csc3ncnc(N4CC(C(N)=O)CCC4C)c23)cc1 (centres undefined)	7.2	3.9
47	NC(=O)CSc1ccc(-c2ccc(F)cc2)nn1	1.7	0.6
48	Cc1ccc(-n2ncc3c(=O)n(NC(=O)c4ccccc4)cnc32)cc1C	15.8	8.5
49	CC(C)CN1CC(OCc2cccc(F)c2)CN(C(=O)Cn2cnc3ccccc3c2=O)CC1=O (centres undefined)	18.7	9.6
50	O=C(CSc1nc2ccccc2[nH]1)N/N=C\c1cccnc1	-4.6	-3.8

# Sorted by number of heavy atoms (high to low): part of the list above
no.	smiles	NPYLR7 agonist	NPYLR7 agonist max-min
48	Cc1ccc(-n2ncc3c(=O)n(NC(=O)c4ccccc4)cnc32)cc1C	15.8	8.5
46	Cc1ccc(-c2csc3ncnc(N4CC(C(N)=O)CCC4C)c23)cc1 (centres undefined)	7.2	3.9
41	O=C(Cn1c(=O)n(C2=CCCCC2)c2ccccc21)N1CCOCC1	0.0	-0.7

# Values in list order from the list.
# Entries 32–36 in NPYLR7 agonist: 2.9, -0.9, 2.1, -0.8, 15.2

# 21 entries from above, with one line to a screen.
(27) Cc1ccc(Cl)c(NC(=O)c2cccc(CN3CCCC(O)C3)c2)c1 (centres undefined)
(28) COC(=O)c1ccc(OC)c(CN2N=NC3C(=O)N(c4ccc(OC)c(Cl)c4)C(=O)C32)c1 (centres undefined)
(29) CN1CC2N(c3ccccn3)C3CCC2(CC3)OC1=O (centres undefined)
(30) Cc1ccn2c3c(nc2c1)CNC(=O)CC3c1ccc(Cn2cccn2)cc1 (centres undefined)
(31) CNS(=O)(=O)c1ccc(Cl)cc1Cl
(32) COc1cc(C)c(S(=O)(=O)NCc2ccc3c(c2)OCO3)cc1C
(33) Cc1cc(C)cc(Oc2cc(-n3nc(C)cc3C)ncn2)c1
(34) O=c1nc(SCc2c(F)cccc2Cl)nc2ccccn12
Screen / compound no.	27	28	29	30	31	32	33	34
NPYLR7 agonist	2.4	1.3	18.6	-1.8	4.0	2.9	-0.9	2.1
NPYLR7 agonist max-min	0.3	-4.7	27.4	7.1	5.7	5.0	-0.7	-0.8

(35) O=C(O)c1cc(C(=O)O)cc(N2C(=O)C3C4C=CC(C4)C3C2=O)c1 (centres undefined)
(36) COc1ccc(C2=Nc3nnnn3C(c3cccc(OC)c3OC)C2)cc1 (centres undefined)
(37) CCCn1cc(CNC(=O)c2ccccc2C2CCNC2)cn1 (centres undefined)
(38) Cn1cnnc1SCc1csc(Cc2ccc3c(c2)OCO3)n1
(39) COc1cccc(C(=O)N2CCSC23CCN(S(=O)(=O)c2ccc(F)cc2)CC3)c1
(40) CCOC(=O)C=C(C)Nc1cnn(-c2ccccc2)c1
(41) O=C(Cn1c(=O)n(C2=CCCCC2)c2ccccc21)N1CCOCC1
(42) CC(C)n1cc(CNC2CC(=O)N(C3Cc4ccccc4C3)C2)cn1 (centres undefined)
Screen / compound no.	35	36	37	38	39	40	41	42
NPYLR7 agonist	-0.8	15.2	6.0	6.9	19.3	0.4	0.0	15.6
NPYLR7 agonist max-min	-9.0	8.9	4.0	7.0	31.5	-1.2	-0.7	4.8

(43) O=C(c1ccc(Cl)c(Cl)c1)C1CCN(C(=O)c2ccnc(NC3CC3)c2)CC1
(44) O=c1cnnc(SCc2cccc(C(F)(F)F)c2)[nH]1
(45) CC(=O)c1sc(=Nc2ccccc2C)n(CCO)c1C
(46) Cc1ccc(-c2csc3ncnc(N4CC(C(N)=O)CCC4C)c23)cc1 (centres undefined)
(47) NC(=O)CSc1ccc(-c2ccc(F)cc2)nn1
Screen / compound no.	43	44	45	46	47
NPYLR7 agonist	-4.3	-1.0	-3.4	7.2	1.7
NPYLR7 agonist max-min	-7.1	-1.9	-8.8	3.9	0.6

# Continuation.
no.	smiles	NPYLR7 agonist	NPYLR7 agonist max-min
51	CC(=O)Nc1ccccc1OC(C)C(=O)Nc1c(Cl)cc(Cl)cc1Cl (centres undefined)	-4.7	-7.7
52	COc1ccc(OC)c(CNC(=O)c2ccc3c(c2)OCCCO3)c1	0.9	0.9
53	O=C(CSc1ncnc2sccc12)NC1CCS(=O)(=O)C1 (centres undefined)	-1.2	1.1
54	Cc1cccc(C)c1Nc1c(-c2ccccc2Cl)nc2ccc(Cl)cn12	17.0	10.2
55	CC(Cc1cccs1)NC(=O)C(C)n1cncn1 (centres undefined)	7.6	3.8
56	c1ccc(Oc2nc(NC3CCCCC3)c3[nH]cnc3n2)cc1	-4.4	-10.4
57	CCCN(CC(=O)N(CCc1ccc(OC)c(OC)c1)Cc1sccc1C)C(=O)c1ccc(OC)cc1OC	-18.0	-10.4
58	CC(C)CNC(=O)NC(=O)Cn1ccnc1	16.7	12.9
59	COCCNC(=O)C(NC(=O)c1ccccc1Cl)C1CCN(C(=O)c2ccccc2OC)CC1 (centres undefined)	1.9	3.3
60	Cc1ccc(CN(C)CC(=O)Nc2cc(Cl)ccc2C#N)cc1	2.7	0.7
61	CCCNC(=O)CNC(=O)c1cc2c(s1)-c1ccccc1OC2	0.2	11.6
62	Cc1cccc(N=Nc2c(O)[nH]c3ccc(F)cc23)c1	-2.8	-4.6
63	COCCN(CC(=O)Nc1nc(CC(=O)N2CCN(c3ccc([N+](=O)[O-])cc3)CC2)cs1)C(=O)c1ccccc1Cl	0.8	5.9
64	CCCCCNC(=O)c1c(-c2ccccc2)noc1C	0.2	-1.4
65	CCCc1cc(=O)n2[nH]c(COC)c(-c3ccc(Cl)cc3)c2n1	-15.7	-21.7
66	CNc1ncccc1CN(Cc1ccc(F)cc1)CC1CCCO1 (centres undefined)	18.1	5.3
67	COc1ccc(OC)c(NC(=O)N2CCc3ccccc3C2c2ccc(C)cc2)c1 (centres undefined)	7.2	5.9
68	CCN(Cc1nc(COC)no1)C(=O)Cc1cccnc1	-0.4	3.8
69	CN(CC(=O)Nc1cccnc1Cl)c1ccc2ccccc2c1	9.9	6.9
70	CCOCCn1c(=O)c2c(nc3n(-c4ccc(OCC)cc4)c(C)cn23)n(C)c1=O	-1.4	-2.5
71	COc1ccc(-c2cnc3ncnn3c2N2CCN(C(=O)c3oc4ccccc4c3C)CC2)cc1	23.3	8.2
72	Clc1ccc2nc(NN=Cc3cccc4nccnc34)nc(-c3ccccc3)c2c1	4.7	5.2
73	CCC(=O)Nc1ccc(NC(=O)CC2CN(C(C)C)CCO2)cc1Cl (centres undefined)	7.5	3.4
74	CCc1ccc(C(C2Sc3nc(CC)nn3C2=O)N2CCC(C(=O)OC)CC2)cc1 (centres undefined)	-1.5	2.6
75	CO[C@@H]1C[C@@H]2CC(C)(C)OC[C@@]2(O)[C@H]1N1CCC(Cc2ccccc2)CC1	2.6	10.1
76	Cc1ccc(-c2ccnc(NCCSc3nnnn3C)n2)c(C)n1	8.2	5.7
77	CC(C)C1CN(C(=O)CN2C(=O)CNC2=O)CCC(=O)N1CC1CC1 (centres undefined)	3.9	2.4
78	COc1ccc(/C=c2/sc3nc(-c4cccs4)nn3c2=O)cc1	5.8	9.5
79	O=C(O)Cc1cc(C(F)(F)F)on1	5.7	3.8
80	Cc1ccc(C)c(C(C)Nc2ncccc2S(N)(=O)=O)c1 (centres undefined)	8.1&6.1	5.3&4.2
81	Cc1cccc(-n2nc(C(=O)Nc3ccccc3)c(=O)n(Cc3ccc(F)cc3)c2=O)c1	15.9	17.1
82	CCc1nc(C)nc(N2CCN(C(=O)c3ccc(F)cc3)CC2)c1Cc1cc(C)ccc1C	1.8	9.0
83	O=C(Nc1nnc(C2CC2)s1)c1cccc(S(=O)(=O)Nc2ccc([N+](=O)[O-])cc2)c1	13.8	3.4
84	CC(C)Cn1c(-c2ccncc2)n[nH]c1=S	1.0	-0.3
85	C=CCNC(=O)c1cc2ccc(F)cc2s1	8.6	3.2
86	CN(C)c1ccc(CNc2cccc(F)c2C#N)cc1	2.7	4.1
87	COCCN(CCOC)C(=O)Cn1cnc2scc(-c3ccccc3)c2c1=O	-5.4	-6.9
88	CCCCn1c(=O)c2c(nc3n2CCCN3c2ccc(OC)cc2)n(C)c1=O	-0.9	-4.7
89	NC(=O)C1CCCCN1Cn1c(=O)oc2ccccc21 (centres undefined)	-6.4	-7.3
90	CCOC(=O)c1nc2cc(Cl)c(Cl)cc2nc1N1CCN(C(=O)C(=O)OC)CC1	3.2	1.1
91	Cc1ccc(-c2ccnc(N(C)CCN3CCCCC3=O)n2)c(C)n1	0.2	2.8
92	Cc1cc(C)n(C(C)CNC(=O)C2(Oc3cccnc3C)CCNCC2)n1 (centres undefined)	22.8	14.2
93	COc1ccc(NC(=O)N(Cc2nc(C(=O)NCCc3ccc(Cl)cc3Cl)cs2)C(C)C)cc1	20.7	20.3
94	CCc1csc(CNC(=O)C2CC(=O)N(c3cccc(O)c3)C2)n1 (centres undefined)	5.7	0.7
95	CCOC(=O)C1(CC2CC2)CCN(C(=O)c2oc3cc(C)ccc3c2C)CC1	-0.7	7.2
96	Cc1cc(C(=O)NC(C)c2cc(F)c(Cl)cc2Cl)no1 (centres undefined)	7.4	4.0
